Compound activity as filed in PubChem BioAssay.
LANA-H2A inh: blocks KSHV LANA binding to histone H2A/H2B; Q9QR71; cell-free LANA-H2A/H2B peptide, fluorescence polarization; inhibition, % (concentration not given with the values); 320,000 tested, 0.6% active; AID 2629; in the data active means inhibition mostly above about 10%, no sharp cut-off; inactive means mostly below about 6.7%;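 further: stock transfer was 7.5 nL into about 10 µL; 0% = median of vehicle wells and 100% = median of positive control wells; one replicate is shown; the record names a cut of 25% in any replicate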
B2AR ag: human beta-2 adrenergic receptor agonism by FAP; Am2.2-beta2AR cells, FAP receptor internalization, flow cytometry; reference of the scale not given here; P07550; response, % (concentration not given with the values); 340,000 tested, 0.43% active; AID 504454;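 active means response above a set limit, near 3 SD of response in nonfluorescent compounds, cut at about 42% in these data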;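 further: stock transfer was 100 nL into about 11 µL; a reference agonist was the positive control; negative values mostly stem from fluorescent compounds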
Target sequence (P07550 whole entry, looked up): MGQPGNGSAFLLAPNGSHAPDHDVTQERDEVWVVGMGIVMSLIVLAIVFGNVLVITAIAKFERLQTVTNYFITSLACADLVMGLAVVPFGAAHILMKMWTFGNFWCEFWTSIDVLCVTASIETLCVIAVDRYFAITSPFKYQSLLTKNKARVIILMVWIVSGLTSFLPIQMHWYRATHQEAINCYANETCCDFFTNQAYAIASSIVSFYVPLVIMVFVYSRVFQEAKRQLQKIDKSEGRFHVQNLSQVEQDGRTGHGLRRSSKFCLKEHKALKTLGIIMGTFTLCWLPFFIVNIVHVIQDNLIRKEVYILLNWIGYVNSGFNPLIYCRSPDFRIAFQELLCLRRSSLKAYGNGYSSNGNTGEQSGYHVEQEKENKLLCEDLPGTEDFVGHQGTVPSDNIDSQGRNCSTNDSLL
Beta apoptosis: beta cell apoptosis inhibition; AID 435005; protection from apoptosis, % (test concentration not listed); INS-1E cytokine-induced death, ATP luminescence, 48 h; percent of positive-control rescue, neutral wells zero; 300,000 tested, 0.8% active;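 active means all replicates at 75% or more, or half of them and the mean; inconclusive means half reach 75% but not the mean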;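 further: 0% = cytokine-treated negative control wells and 100% = positive control rescue; higher means more ATP so stronger rescue from cytokine killing; wells of about 40 µL received 100 nL stock; the first replicate is given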
A1 inh: inhibitors of the anti-apoptotic protein A1, read as caspase activation. caspase activation, % (concentration not given with the values). MEF A1-2A-BIM cells, Caspase-Glo 3/7 luminescence, 3 h; percent of clofoctol response, vehicle zero. 330,000 tested, 0.066% active;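 active means over half of replicate activation scores above 10%, or exactly half above 10 with the replicate mean above 10; inconclusive means replicate mean below 10 yet half the replicates above 10; inactive means over half of replicates below 10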;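 further: wells of about 30 µL received 50 nL stock; many hits fall short of the cut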
T cruzi inh: T. cruzi replication inhibition. T. cruzi beta-gal in NIH3T3, luminescence, 90 h. inhibition, % (test concentration not listed). 300,000 tested, 1.4% active. AID 1885;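 active means mean inhibition across valid replicates above about 55%, limit read from the data; inconclusive means mean below that limit but half or more replicates reach it; inactive means mean below it, under half of replicates reach it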;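 further: signal also drops with host cell toxicity which is not excluded here; 0% = plate median of DMSO wells and 100% = zero luminescence signal; higher percent means less beta-gal luminescence so fewer parasites; stock transfer was 50 nL into about 50 µL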
RanGTP-Impb inh: inhibitors of RanGTP-importin-beta interaction, primary screen, biochemical, FRET, CFP-Ran, YFP-importin-beta, homogeneous. cell-free CFP-Ran/YFP-importin-beta FRET ratio. inhibition, % (no concentration beside the values). 300,000 tested, 1.1% active. AID 2216;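 active means most replicates above 15%; inconclusive means exactly half above 15%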;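 further: 0% = DMSO wells and 100% = Ran loaded with GDP instead of GTP; wells of about 40 µL received 100 nL stock; the first replicate is given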
Calb FLC: affects C. albicans growth with fluconazole | AID 1979 | 300,000 tested, 0.57% active | C. albicans CaCi-2 (fluconazole-resistant clinical isolate) + fluconazole, Alamar Blue growth, 48 h | growth inhibition, % (test concentration not listed);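 active means most replicates above 75%; inconclusive means exactly half above 75%; inactive means most below 75%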;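 further: all wells also contain fluconazole at 8 µg/ml as a sub-toxic cotreatment; 0% = median of DMSO wells and 100% = median of geldanamycin control wells; wells of about 8 µL received 7.5 nL stock; the first replicate is given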
UCH37 inh: blocks the human deubiquitinase UCH37; Q9Y5K5; purified proteasome/UCH37, Ub-AMC cleavage fluorescence; inhibition, % (test concentration not listed); 330,000 tested, 0.33% active; AID 588478;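 active means mean of two replicates above 20%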;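 further: 0% = compound-free wells with enzyme and 100% = wells lacking proteasome; stock transfer was 100 nL into about 20 µL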
Target sequence (Q9Y5K5 whole entry, looked up): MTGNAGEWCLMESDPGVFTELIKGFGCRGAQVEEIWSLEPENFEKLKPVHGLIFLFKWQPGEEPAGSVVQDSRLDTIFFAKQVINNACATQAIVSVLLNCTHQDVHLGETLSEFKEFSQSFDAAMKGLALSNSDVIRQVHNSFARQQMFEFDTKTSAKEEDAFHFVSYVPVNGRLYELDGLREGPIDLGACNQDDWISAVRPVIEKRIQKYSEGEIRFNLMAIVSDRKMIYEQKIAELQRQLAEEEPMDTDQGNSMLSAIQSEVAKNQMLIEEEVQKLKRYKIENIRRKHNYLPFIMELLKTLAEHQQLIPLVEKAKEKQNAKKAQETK
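Schedule: 30 min plus 25 min, room temperature / Material: human UCH37 within purified proteasomes / Technique: AMC fluorescence intensity at 355/460 nm / Buffer or medium: pH 7.4 Tris-HCl (50 mM) with ovalbumin, ATP-MgCl2, DTT / Controls: wells without proteasome as full block, compound-free enzyme plus substrate as uninhibited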
The depositor's hits bear a star; ? = inconclusive; / = not tested or not shown.

Below each compound: LANA-H2A inh, B2AR ag, Beta apoptosis, A1 inh, T cruzi inh, RanGTP-Impb inh, Calb FLC, UCH37 inh
O=C1NC2=C(C(=O)CCC2)C(c2ccccc2[N+](=O)[O-])N1 (stereo unspecified)
    -2.4, 1, -3, -0.3, -5, 4.7, -1, 0.2
Cc1c([N+](=O)[O-])cc(C(=O)Oc2cccc(C(=S)N3CCOCC3)c2)cc1[N+](=O)[O-]
    -3.3, 5, -1, 0.6, -3, 1.8, 3, -1.3
Cc1nnc(Sc2c(-c3ccccc3)c3ccc(Cl)cc3[nH]c2=O)s1
    -0.5, -15, 0, 2.0, 3, 1.0, 20, -11
COc1ccc(C(=O)Nc2ccc3[nH]ccc3c2)cc1
    -3.0, 7, 8, -6.8, -4, -5.5, -1, 4.4
Cc1cccc(OCCCC(=O)O)c1C
    -2.6, 0, 1, 1.2, -10, 1.3, -5, 0.0
CCC(C)c1ccc(NC(=S)Nc2ccc(OC)cc2C)cc1 (stereo unspecified)
    1.2, 1, -2, -0.1, 20, 1.0, -8, 6.0
COc1ccc(-c2cc(C(=O)N(C)CC(=O)Nc3ccccc3Cl)c3ccccc3n2)cc1OC
    3.0, 26, 10, 0.5, 9, 0.5, -8, -43
CC(C)C(=O)N1CCN(c2ccccc2NC(=O)Cc2ccc(Cl)cc2)CC1
    3.6, 6, 2, 0.7, 20, -3.2, 17, 5.7
CCOC(=O)c1sc(-c2ccc(F)cc2)cc1N
    1.6, -5, -8, 0.5, 4, 2.1, -32, -13
CC(=O)c1cccc(NC(=O)CNC(=O)c2cc3ccccc3o2)c1
    -3.4, 7, -12, 0.0, 4, 3.4, 10, -1.4
COc1ccc(OCC(=O)Nc2ccc3c(c2)nc(CCN2CCOCC2)n3C)cc1
    2.3, -3, 3, -0.7, -4, -1.3, 11, 1.9
Cc1csc(OCc2ccc(C#N)cc2)n1
    -4.8, 5, -1, 0.7, -17, ?, 5, 3.8
O=C(c1nc2ccc(Cl)cn2c1CN1CCC[C@H]1CO)N1CCCCCCC1
    4.9, 4, -9, 1.5, 1, 22*, -5, -0.8
COC(=O)c1sc2nc(CN3CCN(c4cccc(C(F)(F)F)c4)CC3)[nH]c(=O)c2c1C
    2.5, -6, 5, 0.2, 2, 2.5, 9, 0.2
O=C1N/C(=C/c2ccc(N3CCCC3)cc2)C(=O)N1c1ccccc1
    6.1, 12, 16, -0.9, -7, -0.1, 6, 1.2
CC(C)(C)C(=O)Nc1ccc(C(=O)NNC(=O)c2ccccc2)cc1
    0.1, 2, /, 0.0, -1, -2.4, 8, 2.7
COCCN(CC(=O)Nc1cccc(C)c1C)C(=O)c1cc(-c2ccncc2)nc2ccccc12
    2.9, 21, -3, 0.1, /, /, /, 4.8
COc1ccc(-c2nnc3ccc(SCC(=O)Nc4nccs4)nn23)cc1OC
    0.2, -14, -7, 0.7, -3, 3.0, 4, 0.5
COc1cc2c(cc1OC)C(c1ccc(SC)cc1)CC(=O)N2 (stereo unspecified)
    -1.3, -4, -5, 0.6, -1, 5.7, -1, 2.1
Cc1ccc(S(=O)(=O)N2CCCCC2)cc1C(=O)NCCc1ccccc1
    -1.8, 1, 4, -0.1, -2, 3.1, 2, 1.7

Quoted from the listing.
`O=C1NC2=C(C(=O)CCC2)C(c2ccccc2[N+](=O)[O-])N1` (stereo unspecified) in RanGTP-Impb inh is entered as 4.7
`COc1ccc(-c2nnc3ccc(SCC(=O)Nc4nccs4)nn23)cc1OC` in A1 inh is entered as 0.7

The main list resumes, starting 2 compounds before the break.
Below each compound: LANA-H2A inh, B2AR ag, Beta apoptosis, A1 inh, T cruzi inh, RanGTP-Impb inh, Calb FLC, UCH37 inh
COc1cc2c(cc1OC)C(c1ccc(SC)cc1)CC(=O)N2 (stereo unspecified)
    -1.3, -4, -5, 0.6, -1, 5.7, -1, 2.1
Cc1ccc(S(=O)(=O)N2CCCCC2)cc1C(=O)NCCc1ccccc1
    -1.8, 1, 4, -0.1, -2, 3.1, 2, 1.7
O=C(NCc1cccs1)c1cc(-c2ccccc2)nc2ccccc12
    /, 6, 7, 2.1, -4, 0.4, 30, 4.3
O=C(NCc1ccccc1Cl)c1ccc2c(=O)n(CC3CCCO3)c(=S)[nH]c2c1 (stereo unspecified)
    -2.0, 9, -2, -0.3, 2, -0.5, 3, 1.9
COc1ccc(CCNC(=O)C2CCCN(S(C)(=O)=O)C2)cc1 (stereo unspecified)
    0.5, 6, -1, 2.2, -24, 4.4, 9, /
CCOc1ccc(S(=O)(=O)N(C)c2ccc(OCC(=O)NCC3CCCO3)cc2)cc1 (stereo unspecified)
    -2.9, -2, -4, 0.6, 1, 0.2, 3, 1.2
O=S(=O)(Nc1ccc(C(F)(F)F)cc1)c1cnc[nH]1
    -3.2, 7, -3, 0.2, -8, 1.0, 4, 3.9
O=C1C(Oc2ccccc2)C(c2cccs2)N1Cc1ccc2c(c1)OCO2 (stereo unspecified)
    -6.2, -11, 10, -0.4, 17, 2.0, -23, 0.8
COc1ccc(-c2noc(CSc3nnc(CCc4ccccc4)n3-c3ccccc3)n2)cc1OC
    4.2, 9, /, -0.8, 46, -0.4, 30, 3.7
O=c1[nH]c(SCc2nc3ccccc3c(=O)n2-c2ccccc2C(F)(F)F)nc2ccccc12
    0.8, -3, -5, 0.4, -2, -0.7, 1, 0.5
Cn1c(=O)oc2cc(S(=O)(=O)N3CCC(C(=O)N4CCc5ccccc5C4)CC3)ccc21
    2.9, -31, /, 0.2, 10, -5.2, -1, 4.3
CCOC(=O)c1c(C)c(C#N)c2c3ccccc3ccn12
    0.6, -2, -3, -0.6, -5, -1.9, -3, -5.9
COCCN(C(=O)CC1OC(=O)c2ccccc21)c1c(N)n(Cc2ccccc2)c(=O)[nH]c1=O (stereo unspecified)
    0.9, -5, 0, -0.2, /, /, /, 2.8
COc1ccc(NC(=O)CSCC(=O)N2CCCc3ccccc32)cc1
    4.6, 1, 7, 1.1, 1, 3.2, 3, -1.1
CCCC(=O)N1CCN(c2ccc(NC(=O)c3ccccc3)cc2)CC1
    0.3, 4, 2, 0.1, 15, -2.6, -1, 6.0
Cc1ccc2ccc(S(=O)(=O)n3nc(C)cc3C)cc2c1
    6.4, 3, -6, 0.1, 13, -2.5, 24, 2.2
COc1ccc(C(=O)N2CCCC(c3nc(-c4ccc(OC)c(OC)c4)no3)C2)c(OC)c1 (stereo unspecified)
    12, -5, 3, -0.3, 3, 0.3, 4, 4.8
COc1ccccc1C1CC(c2ccc(NS(C)(=O)=O)cc2)=NN1S(=O)(=O)c1ccccc1 (stereo unspecified)
    -2.0, 5, /, -0.9, 15, 3.0, -9, 2.5
COc1ccc(C(CC(=O)Nc2ccc(C)cc2)NC(=O)C(F)(F)F)cc1 (stereo unspecified)
    -2.3, 7, -3, -0.9, -17, -4.0, -22, 2.1
Cc1ccc(S(=O)(=O)c2ncccc2N)cc1
    0.5, -4, -4, 0.2, -13, -2.2, -10, -23
CCN(CC)CCCN(Cc1cc2cc3c(cc2[nH]c1=O)OCO3)C(=S)Nc1ccccc1
    3.2, 0, -8, 0.2, 4, -47, -4, -75
COc1ccccc1C(=O)N1CC2(C)CC1CC(C)(C)C2 (stereo unspecified)
    -4.4, -2, -3, 1.8, 0, 1.1, 0, 4.9
NC(=O)C(Cc1ccccc1)N1C(=O)c2ccccc2C1=O (stereo unspecified)
    -0.4, -1, 0, 0.6, -16, 0.7, -15, 0.9
CCc1ccc(NC(=O)C(=O)NCc2ccccn2)cc1
    -1.0, 1, -9, -2.4, 13, -2.8, 3, 1.2
COc1ccc(Cn2c(CCC(=O)O)nc3cccnc32)cc1
    4.7, -5, -6, 1.1, -14, -0.8, -4, 0.0
COC(=O)N/N=C(\C)c1ccco1
    -6.7, 6, /, -0.5, -10, -2.4, -6, /
O=C(c1ccc(N2CCOCC2)c([N+](=O)[O-])c1)N1CCN(c2ccccc2F)CC1
    -1.3, -3, -10, 0.6, /, /, /, 4.2
COc1cccc(C2=CC(=O)C[C@H](c3ccc(OC)c(OC)c3)C2)c1
    -0.4, -1, -5, -1.6, /, /, /, 2.1
COCCCn1c(SCc2cccc(C(F)(F)F)c2)nc2cc(OC)c(OC)cc2c1=N
    -2.4, 0, 7, 0.0, 58*, -3.8, 18, 1.8
CC(C)N(CC#CC(O)(c1ccccc1)c1ccccc1)C(C)C
    2.1, 1, -2, 0.7, -5, -4.2, 0, 3.6
CCOC(=O)c1c(C)[nH]c(C)c1S(=O)(=O)N(C)CC(=O)NCc1cccc(Br)c1
    1.7, 1, -8, 0.2, 2, 5.2, -1, -0.3
CN(C)S(=O)(=O)c1ccc(NC(=O)CN2CCC(Cc3ccccc3)CC2)cc1
    -4.5, 0, 7, 0.7, 18, 1.5, -20, 3.2
CCOC(=O)c1sc2nc(N3CCOCC3)c3c(c2c1N)CC(C(C)C)OC3 (stereo unspecified)
    4.2, -1, -4, -0.3, 12, -3.6, -3, -187
CC(=O)c1sc(NC(=O)c2ccc(Cl)cc2)nc1C
    3.5, -3, 3, -9.1, -15, ?, 3, 6.6
CN(C)c1nc(C(=O)OCCO)nc(N(C)C)n1
    -0.2, -2, -5, -0.3, -3, 2.2, 5, 0.3
COc1ccc(-n2c(C)cc(C(=O)CN3C(=O)NC4(CCc5ccccc54)C3=O)c2C)cc1 (stereo unspecified)
    -3.2, -1, 37, -1.3, 8, -2.7, -15, 2.2
O=[N+]([O-])c1cc(C(F)(F)F)ccc1NCCc1c[nH]c2ccccc12
    3.0, -6, 2, -0.5, 25, 2.4, 23, 0.2

Structures from the list above containing a cyano group (two):
Below each compound: LANA-H2A inh, B2AR ag, Beta apoptosis, A1 inh, T cruzi inh, RanGTP-Impb inh, Calb FLC, UCH37 inh
Cc1csc(OCc2ccc(C#N)cc2)n1
    -4.8, 5, -1, 0.7, -17, ?, 5, 3.8
CCOC(=O)c1c(C)c(C#N)c2c3ccccc3ccn12
    0.6, -2, -3, -0.6, -5, -1.9, -3, -5.9
